From PubChem
Autofluor counter = compound fluorescence in toxin protease inhibitor counterscreen | compound autofluorescence counterscreen, microsphere flow cytometry; hits give high values | fluorescence intensity (no concentration beside the values) | hit rate 3.1% among 360,000;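 active means at least 3 SD above the mean of all compounds, about 16000 in these data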;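 further: 100 nL of 1 mM stock went into each well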
Sa RN4220 lethal = S. aureus RN4220 growth inhibition; OD600, 16 h; inhibition, % (test concentration not listed); hit rate 0.33% among 330,000; AID 1259311;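 active means z-score of -3 or lower and OD600 up to 0.18 on both plates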;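 further: plate controls were untreated cells for no effect and reference antibiotic for full effect; stock transfer was 100 nL into about 80 µL; one replicate is shown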
Sa ugtP lethal = compounds lethal to S. aureus RN4220 ugtP deletion mutant. hit rate 0.54% among 330,000. AID 1259309. OD600 growth, 16 h; some inactives read as strong as hits. growth inhibition, % (test concentration not listed);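 active means z-score under -3 and OD600 up to 0.15 on both plates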;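 further: plate controls were untreated wells for no effect and antibiotic for full effect; wells of about 80 µL received 100 nL stock; the first replicate is given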
BJeLR lethal = kills HRASV12-expressing BJeLR cells; AID 1554; BJeLR (HRASV12) viability, CellTiter-Glo ATP luminescence, 48 h; reference of the scale not given here; hit rate 0.17% among 300,000; inhibition, % (test concentration not listed);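 active means replicate mean above 50%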;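 further: 50 nL library stock added to about 25 µL; numbers are from one replicate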
Mtb hypoxia inh = Mtb hypoxia fluorescent reporter inhibition | M. tuberculosis hypoxia-regulated fluorescent reporter, fluorescence | fluorescence inhibition, % (test concentration not listed) | hit rate 0.1% among 300,000 | AID 1159583;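 active means 35 to 45% if threefold the growth effect, above 45% if 1.5-fold the growth effect; inactive means the rest, general growth blockers included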;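 further: wells of about 50 µL received 100 nL stock; 0% = vehicle wells and 100% = reference inhibitor wells; whole bacteria with a GFP reporter of the hypoxia response; strong numbers were not always called active; many hits fall short of the cut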
PrP UTR inh = suppresses PrP 5' UTR mRNA reporter expression | cell-based PrP 5' UTR mRNA reporter, plate reader | inhibition, % (concentration not given with the values) | hit rate 0.35% among 340,000 | AID 488862;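 active means every replicate at 50% or more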;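 further: 0 = median of the neutral control wells; tested in H4 reporter cells; numbers are from one replicate; inactives centre near -14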
Mtb hypoxia inh growth = second read-out of Mtb hypoxia inh, no call of its own (marks repeat the call); growth inhibition, %; measured here: M. tuberculosis growth (absorbance);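 0% = vehicle and 100% = reference antibiotic; read after six days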
An asterisk follows results filed as active; · = no result given; & = joins results of further samples.

cpd	Molecule	Autofluor counter	Sa RN4220 lethal	Sa ugtP lethal	BJeLR lethal
1	CCc1nc2cccnc2n1-c1ccc(CC(=O)NC(C)CC)cc1 (configuration not stated)	3653	1.5	5	6
2	O=C(CSCC(=O)NN=Cc1ccccc1)NN=Cc1ccccc1	2896	2.8	5	·
3	O=[N+]([O-])c1cccc(S(=O)(=O)N2CCCCC2)c1	3821	7.6	8	0
4	COCCNC(=O)c1ccc2c3n(nc2c1)-c1ccc(C)cc1CO3	3817	2.9	-7	10
5	CC(=O)N1CCN(CCN=CC2=C(O)CC(c3ccc(Cl)cc3)CC2=O)CC1 (configuration not stated)	3000	7.7	5	-4
6	Oc1[nH]c2ccccc2c1N=Nc1c(F)c(F)c(C(F)(F)F)c(F)c1F	3645	-5.1	-9	5
7	Cc1ccc(C2C3=C(CC(C)(C)CC3=O)Nc3onc(C)c32)cc1 (configuration not stated)	2669	2.3	-2	-9
8	CCc1ccc(Nc2cc(C(=O)NCCCN3CCOCC3)c3ccccc3n2)cc1	6038	2.6	0	2
9	COc1cc2c(cc1OC)C(c1c(O)n(CCc3ccccc3)c(=S)[nH]c1=O)NCC2 (configuration not stated)	·	0.0	7	1
10	CSc1nc(-c2ccco2)nn1C(=O)c1cccs1	3833	8.1	2	-9

cpd	Mtb hypoxia inh	Mtb hypoxia inh growth	PrP UTR inh
1	-11	11	-30
2	4	1	·
3	8	17	-10
4	5	10	-28
5	2	8	-17
6	-7	-1	-19
7	·	·	-3
8	8	3	13
9	4	-4	·
10	8	8	-12

The closing five entries of the section before open the next one:
cpd	Molecule	Autofluor counter	Sa RN4220 lethal	Sa ugtP lethal	BJeLR lethal
6	Oc1[nH]c2ccccc2c1N=Nc1c(F)c(F)c(C(F)(F)F)c(F)c1F	3645	-5.1	-9	5
7	Cc1ccc(C2C3=C(CC(C)(C)CC3=O)Nc3onc(C)c32)cc1 (configuration not stated)	2669	2.3	-2	-9
8	CCc1ccc(Nc2cc(C(=O)NCCCN3CCOCC3)c3ccccc3n2)cc1	6038	2.6	0	2
9	COc1cc2c(cc1OC)C(c1c(O)n(CCc3ccccc3)c(=S)[nH]c1=O)NCC2 (configuration not stated)	·	0.0	7	1
10	CSc1nc(-c2ccco2)nn1C(=O)c1cccs1	3833	8.1	2	-9
11	CC(CCc1ccccc1)N(C)CC(O)c1cccc([N+](=O)[O-])c1 (configuration not stated)	3489	4.2	13	10
12	CCCc1nc2ccc(NC(=O)c3cccs3)cc2c(=O)n1Cc1ccccc1Cl	2358	·	·	-1
13	O=C(CSc1nnc(NC(=O)c2ccco2)s1)Nc1ccc(F)cc1F	5889	-1.7	-2	-2
14	CC(c1ccccc1)C1CC(=O)N(c2ccc([N+](=O)[O-])cc2)C1=O (configuration not stated)	3781	3.5	3	-4
15	COc1cccc(CN2CCN(Cc3nc(C(C)C)cs3)CC2CCO)c1 (configuration not stated)	2062	2.1	2	-2
16	CCCCSC(N)=NN=Cc1cc(C)ccc1O	·	5.8	2	·
17	CCc1ccc(CC)c(S(=O)(=O)Nc2ccc(O)c(C(=O)O)c2)c1	10882	-1.8	7	10
18	O=C1S/C(=C\C=C\c2ccco2)C(=O)N1c1ccc(O)cc1	2134	9.1	-3	-6
19	CS(=O)(=O)N1c2ccccc2[C@]2([C@@]34CC5C(=O)NC(Cc6ccccc6)C(=O)N5C3N(S(C)(=O)=O)c3ccccc34)CC3C(=O)NC(Cc4ccccc4)C(=O)N3C12 (some centres not stated)	·	9.0	4	·
20	Cc1cc(Cl)ccc1OCC(=O)N/N=C1\CCCc2ccccc21	10250	·	·	-2

cpd	Mtb hypoxia inh	Mtb hypoxia inh growth	PrP UTR inh
6	-7	-1	-19
7	·	·	-3
8	8	3	13
9	4	-4	·
10	8	8	-12
11	0	8	-10
12	·	·	-5
13	13	7	-14
14	3	2	-13
15	10	8	-9
16	8	9	·
17	-4	4	-7
18	5	9	-77
19	4	16	·
20	·	·	-17

The listing continues:
cpd	Molecule	Autofluor counter	Sa RN4220 lethal	Sa ugtP lethal	BJeLR lethal
21	CC(C)(C)c1ccccc1OCC(O)CN1CCN(c2ccccn2)CC1 (configuration not stated)	3995	5.9	3	6
22	COc1cc(NC(=O)C2CC(=O)N(CCc3ccccc3)C2)cc(OC)c1 (configuration not stated)	4854	0.4	6	1
23	CCOC(=O)CC(=O)CSc1nc2c(cc1C#N)CCCCC2	4683	0.2	-2	-6
24	CCOC(=O)N1CCC(C(=O)NNC(=O)c2ccc(Cl)cc2Cl)CC1	4653	-0.4	0	1
25	COc1ccc(NC(=O)Cc2ccccc2F)cn1	3188	-3.1	-1	6
26	COc1nnc(-c2ccc(N3CCOCC3)c(NC(=O)c3ccco3)c2)c2ccccc12	2888	-7.6	-2	-2
27	COc1cc(C=NCC2OCCc3ccccc32)cc(OC)c1 (configuration not stated)	3454	5.9	9	5
28	CCc1cnccc1CCC(=O)Nc1ccccc1C	4010	2.5	0	5
29	Cc1ccc(NC(=O)[C@@H]2CCCN2S(=O)(=O)c2ccccc2F)cc1	3692	2.8	2	-9
30	COc1cccc(CN(C)CC(=O)NCc2ccc(F)cc2)c1OC	2987	1.4	1	7

cpd	Mtb hypoxia inh	Mtb hypoxia inh growth	PrP UTR inh
21	-10	-19	-14
22	4	0	-14
23	·	·	-36
24	7	-3	-1
25	-2	6	-8
26	6	-2	-21
27	7	12	35
28	13	6	-13
29	7	6	-16
30	3	5	·

Next part.
cpd	Molecule	Autofluor counter	Sa RN4220 lethal	Sa ugtP lethal	BJeLR lethal
31	O=S(=O)(Nc1ccc(N2CCCCC2)cc1)c1ccc(F)cc1	5276	4.1	6	-17
32	CCCCn1c(CN2CCN(C(=O)c3ccco3)CC2)nc2c1c(=O)n(C)c(=O)n2C	6315	-7.6	-9	-5
33	Cc1c(CCC(=O)NCCC(=O)O)c(=O)oc2cc3occ(-c4ccccc4)c3cc12	3956	12	-20	0
34	COC(=O)c1cccc(S(=O)(=O)N2CCC(n3nnc4cc(F)ccc43)CC2)c1	3765	5.3	-2	-11
35	COc1cccc(NC(=O)c2cccnc2)c1	·	1.5	4	9
36	C[C@@H]1C2CC(CC2=NNC(=O)c2ccncc2)C1(C)C (some centres not stated)	·	0.4	1	·
37	CCn1c(SCc2nc3ccccc3c(=O)[nH]2)nnc1C(C)NC(=O)c1ccccc1F (configuration not stated)	3345	4.0	10	4
38	CC(C)CNc1nc(S(=O)(=O)c2ccccc2)c(Cl)s1	4704	-5.3	4	1
39	O=c1c2[nH]c3ccc(F)cc3c2ncn1CCCn1ccnc1	2831	-13	2	-7
40	CC(=O)c1ccc(NC(=O)C[n+]2cccc(C)c2)cc1	4320	4.1	-1	8

cpd	Mtb hypoxia inh	Mtb hypoxia inh growth	PrP UTR inh
31	7	4	·
32	1	14	-50
33	6	3	-9
34	-2	3	-23
35	·	·	-29
36	·	·	·
37	2	5	-2
38	10	2	-18
39	11	8	-14
40	17	6	-14

Additional records follow:
cpd	Molecule	Autofluor counter	Sa RN4220 lethal	Sa ugtP lethal	BJeLR lethal
41	COc1ccc(Nc2ncnc3c2cnn3Cc2ccc(C)cc2)cc1	3938	7.3	33	2
42	Cc1occc1C(=O)O/N=C(\N)c1ccc(Cl)cc1	3942	4.4	12	-3
43	COc1ccc(S(=O)(=O)N(Cc2ccccc2)c2ccccc2C(=O)N2CCOCC2)cc1	3555	2.7	3	0
44	O=C(NC(Cc1ccc(F)cc1)C(=O)O)c1ccccc1 (configuration not stated)	5042	0.6	6	4
45	Cc1cc(C)cc(C(=O)N2CC(C)SC2=Nc2cccc(S(=O)(=O)N(C)C)c2)c1 (configuration not stated)	1974	4.1	10	-1
46	O=C(CC1CC=CCCC(Cc2ccc(F)cc2)C(=O)OCC2CCCN2C1=O)NC(CO)Cc1ccccc1 (configuration not stated)	·	0.5&2.2&-3.0	4&0&5	·
47	COc1cccc(C=NNC(=O)C(=O)N2CCCC2)c1OC	·	-4.7	4	·
48	Nc1nnc(CC(=O)NN=Cc2ccc(-c3cccc(Cl)c3)o2)s1	·	-10	3	·
49	O=C(Nc1ccc2ncccc2c1)c1ccccc1Br	3860	-0.9	-9	-5
50	O=C(Nc1ccncc1)Nc1ccccn1	2580	-5.4	-4	3

cpd	Mtb hypoxia inh	Mtb hypoxia inh growth	PrP UTR inh
41	·	·	-3
42	12	-1	-68
43	-11	8	-10
44	·	·	1
45	17	0	-21
46	0&1&14	7&9&9	·
47	0	5	·
48	4	-3	·
49	1	3	-88
50	7	9	-1

Two entries from above, as tab-separated lines.
nr	SMILES	Autofluor counter	Sa RN4220 lethal	Sa ugtP lethal	BJeLR lethal	Mtb hypoxia inh	Mtb hypoxia inh growth	PrP UTR inh
46	O=C(CC1CC=CCCC(Cc2ccc(F)cc2)C(=O)OCC2CCCN2C1=O)NC(CO)Cc1ccccc1 (configuration not stated)	·	0.5&2.2&-3.0	4&0&5	·	0&1&14	7&9&9	·
47	COc1cccc(C=NNC(=O)C(=O)N2CCCC2)c1OC	·	-4.7	4	·	0	5	·

Values by screen from the entries so far:
Nos. 41 to 50 in Mtb hypoxia inh growth read ·, -1, 8, ·, 0, 7&9&9, 5, -3, 3, 9

More results.
cpd	Molecule	Autofluor counter	Sa RN4220 lethal	Sa ugtP lethal	BJeLR lethal
51	CN(C(=O)c1ccc(NC(=O)Cc2ccc(NC(=O)C3CCCN(C(=O)C4CC4)C3)cc2)cc1)C1CCCC1 (configuration not stated)	3311	3.6	-1	·
52	COc1ccc(C(C)=O)cc1CC(=O)Nc1ccccc1-c1ccccc1	3862	·	·	-17
53	CCOC(=O)N1CCC(NC(=O)CSCc2nc(-c3ccc(OC)cc3)oc2C)CC1	4690	4.8	12	3
54	Cc1c(NS(=O)(=O)c2ccc3c(c2)c(=O)n(C)c(=O)n3C)c(=O)n(-c2ccccc2)n1C	3888	-0.1	-1	-2
55	CC1CCCN(C(=O)c2ccc3c(c2)C(=O)N(CCC2=CCCCC2)C3=O)C1 (configuration not stated)	4210	1.8	13	7
56	COc1cccc(S(=O)(=O)Nc2ccc(C(=O)N3CCOCC3)cc2)c1	8246	2.4	-3	3
57	CN(CC(=O)Nc1ccccc1Cl)C(=O)CSc1nncn1C	·	0.4	6	-20
58	COc1ccc(C2=CSC3=C(C(=O)c4cccc(S(=O)(=O)N(C)C)c4)CCN23)cc1	6043	12	-13	-10
59	Cc1cc(NC(=O)CSc2nnc(C(C)N(C)C)n2Cc2ccccc2)no1 (configuration not stated)	9351	0.6	2	11
60	COc1cccc(N/C(SCc2ccccc2F)=C(/C#N)C(=O)NCc2cccs2)c1	9789	-0.4	11	8

cpd	Mtb hypoxia inh	Mtb hypoxia inh growth	PrP UTR inh
51	4	8	-11
52	·	·	-18
53	17	10	-31
54	-3	-3	-27
55	7	8	-10
56	5	11	-9
57	-1	-2	-12
58	7	9	-19
59	2	1	-12
60	2	4	-18

(list continues)
cpd	Molecule	Autofluor counter	Sa RN4220 lethal	Sa ugtP lethal	BJeLR lethal
61	COc1ccc(/C=N/NC(=O)CCn2cnc(-c3ccccc3)c2-c2ccccc2)cc1	2194	·	·	33
62	COC(=O)c1ccc2c(=O)[nH]c(COC(=O)c3c(-c4ccccc4)noc3C)nc2c1	5172	1.4	2	14
63	O=C(COc1ccc(S(=O)(=O)N2CCOCC2)cc1Cl)N1CCCC1	3765	3.1	0	-3
64	COc1ccc(C)cc1NC(=O)NC1CCCCCCC1	5115	3.2	10	·
65	Cc1ccc(CN(C)C(=O)c2ccc3c(c2)NC(=O)CS3)o1	3645	2.5	4	-5
66	COc1ccc(S(=O)(=O)N(CC(=O)NC2CCCCC2)c2ccc(F)cc2)cc1	5944	3.4	7	-5
67	O=C(CSc1cn(CCNC(=O)c2ccccc2F)c2ccccc12)NCC1CCCO1 (configuration not stated)	5625	3.2	5	3
68	Cc1ccc(OCC(=O)N/N=C\c2ccncc2)c(C)c1	2019	·	·	-3
69	Cc1nnc(NC(=O)c2cc3n(n2)C(C(F)(F)F)CC(C2CC2)N3)s1 (configuration not stated)	3356	-6.3	-4	1
70	O=C(CSc1nnc(-c2ccco2)o1)N1c2ccccc2CCc2ccccc21	8093	0.4	6	4
71	C=CCn1c(SCC(=O)NCC2CCCO2)nnc1-c1ccccc1 (configuration not stated)	2577	8.6	5	5
72	Nc1ncn(-c2ncc(C(F)(F)F)cc2Cl)n1	4914	6.7	4	-4
73	COC(=O)c1ccc2c(c1)NC(=O)C(N1CCOCC1)S2 (configuration not stated)	8004	2.0	10	-1

cpd	Mtb hypoxia inh	Mtb hypoxia inh growth	PrP UTR inh
61	·	·	-11
62	3	16	-13
63	5	2	-9
64	0	0	-7
65	16	5	-4
66	8	0	-16
67	5	-17	-8
68	·	·	-42
69	9	8	-10
70	13	2	-21
71	13	5	-34
72	3	3	-13
73	6	8	-20
